# Screening data from PubChem.
# PABP polyA inh = PABP poly(A) RNA binding inhibitors, primary screen, biochemical, fluorescence polarization, uHTS; inhibition, % at 35 µM; AID 2014, 2009; Polyadenylate-binding protein 1 (Homo sapiens), P11940; actives 1% (n = 290,000);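 active = 50% or more with normal probe brightness, or confirmed in later tests; inconclusive = above 50% with abnormal brightness, or retests that disagree; inactive = below 50% or failed in later tests; about a fifth of its hits are not listed in these tables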;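 also: calls also rest on retests at 20 µM and on dose response follow-up; controls were probe without protein and protein plus probe with vehicle; some compounds called inactive have numbers as strong as hits; many hits fall short of the cut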
# Target sequence (P11940 whole entry, looked up): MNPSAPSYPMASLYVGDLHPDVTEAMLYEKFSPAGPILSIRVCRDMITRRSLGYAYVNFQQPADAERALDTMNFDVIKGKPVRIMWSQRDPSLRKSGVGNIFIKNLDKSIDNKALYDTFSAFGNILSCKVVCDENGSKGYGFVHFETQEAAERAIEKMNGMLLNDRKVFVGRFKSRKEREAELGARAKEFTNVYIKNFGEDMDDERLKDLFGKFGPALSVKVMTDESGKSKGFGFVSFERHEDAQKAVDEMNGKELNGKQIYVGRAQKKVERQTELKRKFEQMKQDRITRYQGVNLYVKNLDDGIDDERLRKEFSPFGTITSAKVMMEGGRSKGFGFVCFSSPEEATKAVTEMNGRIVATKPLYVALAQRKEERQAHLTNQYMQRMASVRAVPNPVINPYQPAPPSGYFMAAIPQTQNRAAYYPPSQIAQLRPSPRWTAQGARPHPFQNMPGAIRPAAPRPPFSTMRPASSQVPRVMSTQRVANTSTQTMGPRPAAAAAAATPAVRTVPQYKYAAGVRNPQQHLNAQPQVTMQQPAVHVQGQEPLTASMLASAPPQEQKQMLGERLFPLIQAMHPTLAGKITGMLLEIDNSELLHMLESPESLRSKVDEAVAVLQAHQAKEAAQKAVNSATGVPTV
# CSC inhib = cancer stem cell viability inhibitors, primary screen, luminescence; cancer stem cell-like cells viability; inhibition, % at 7.5 µM; actives 1.1% (n = 300,000); AID 2717, 2010;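 active = mean at 75% or more and at least half the replicates too; inconclusive = mean and replicates disagree; tested in HMLE shEcad cells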;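 also: 0% = median of negative and 100% = median of positive control wells; the first replicate is given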
# MT1-MMP act inh = blockers of MT1-MMP proenzyme processing, primary screen, HT1080 RFP-PRO-GFP cells, GFP/RFP fluorescence | GFP/RFP ratio fluorescence, overnight; percent of plate control window, DMSO zero | GFP/RFP ratio change, % at 20 µM | actives 0.061% (n = 360,000);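 active = GFP/RFP ratio change of at least 30% with cell ATP level not reduced by more than half and red fluorescence within 50% of control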; also: strong numbers were not always called active
#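 Assay system: HT1080 cells carrying an RFP-PRO-GFP reporter | Dosing: Single dose of 20 µM compound, 1% DMSO final | Incubation: Cells overnight before dosing, compound overnight, 37 °C, 5% CO2 | Evaluation: GFP/RFP fluorescence ratio | Control set: DMSO and RFP-L50D-GFP cell wells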
# eIF4H FP inh = human eIF4H binding inhibitors, primary screen, translation initiation inhibitor project, biochemical, uHTS, fluorescence polarization; Eukaryotic translation initiation factor 4H (Homo sapiens), Q15056; eIF4H fluorescence polarization binding assay; inhibition, % at 35 µM; actives 0.94% (n = 290,000); AID 2012, 2009;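 active = 50% or more with normal probe brightness, or confirmed in later tests; inconclusive = above 50% with abnormal brightness, or retests that disagree; inactive = below 50% or failed in later tests; about a fifth of its hits are not listed in these tables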;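 also: calls also rest on retests at 20 µM and on dose response follow-up; 0% = protein and probe with vehicle and 100% = probe without protein; strong numbers were not always called active; many hits fall short of the cut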
# UUG fidelity = modulators of yeast start codon fidelity, primary screen, whole organism, S. cerevisiae, single point, plate reader; S. cerevisiae UUG-firefly luciferase reporter, luminescence/redox ratio; activity score, % at 18.7 µM; actives 0.13% (n = 350,000);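 active = replicate mean at a twofold rise or more, about +100% in these data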;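 also: firefly luciferase made from a UUG start codon reports start codon fidelity; reporter light over untreated wells divided by growth signal over untreated wells; some hits fall short of that in this replicate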
# Env fusion inh = inhibitors of HIV-1 Env-driven cell-cell fusion, primary screen, HeLa-JRFL effector, CEM21 target cells, luciferase. inhibition, % at 12.3 µM. actives 1.1% (n = 360,000). AID 651610, 2012;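 active = mean replicate inhibition score of at least 50 and every replicate individually at or above 50; inconclusive = only one of the two criteria met; inactive = mean below 50 and not all replicates reaching 50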;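 also: 0% = plate neutral controls and 100% = maraviroc near 300 nM; one replicate is shown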
# Rce1 inh = yeast Rce1p protease inhibitors, primary screen, biochemical, fluorescence, cell-free homogeneous; calls only; CAAX prenyl protease 2 (Saccharomyces cerevisiae (strain ATCC 204508 / S288c)), Q03530; AID 2563, 2010; actives 0.27% (n = 290,000); yeast membranes, quenched prenylated peptide cleavage fluorescence;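 active = fall in fluorescence gain of 50% or more versus controls, with final raw signal at or below 3038400; inconclusive = same 50% fall but final raw signal above 3038400; inactive = fall in fluorescence gain under 50%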;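 also: plate controls were neutral control wells for no effect and wells lacking membranes for full effect; tested at 10 µM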
# eIF4H FP inh retest = recorded beside eIF4H FP inh, whose call it bears; inhibition, %; compound at 20 µM; confirmation average;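 mean of two retest wells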
# PABP polyA inh retest = second read-out of PABP polyA inh, no call of its own (marks repeat the call); inhibition, %; compound at 20 µM; confirmation repeats;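 mean of two retest wells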
# MT1-MMP act inh RFP = further read-out of MT1-MMP act inh, marked with its call; RFP signal change, %; measured here: RFP expression control read;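 0 = vehicle wells; hits needed this value within 50% of zero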
# * = called active by the depositor; i = inactive; ? = inconclusive; · = not tested or not shown.
SMILES,PABP polyA inh,CSC inhib,MT1-MMP act inh,MT1-MMP act inh RFP,eIF4H FP inh,UUG fidelity,Env fusion inh,Rce1 inh,others
O=S(=O)(c1ccc(Cl)nc1)N1CCN(c2ncccn2)CC1,6,-6,-1,1,-2,-18,-63,i,
Cc1ccc(NC(=O)COc2ccc(/C(N)=N/O)cc2)cc1C,-17,5,9,-1,-5,-9,·,i,
CC(=O)Nc1ccc(OC(=O)CC2SC(=O)NC2=O)cc1 (stereo unspecified),9,1,0,1,-2,·,-83,i,
COc1ccccc1NC(=O)COC(=O)CCS(=O)(=O)c1ccc(C)cc1,-2,-13,0,7,-1,-18,·,i,
Cc1nn(C(=O)c2ccc([N+](=O)[O-])cc2)c(C)c1Br,3,-1,4,3,2,-12,10,·,
CCCC/C(O)=C1\C(=O)CC(C)(C)CC1=Nc1ccc(OC)cc1,3,5,-4,-12,4,·,48,i,
CNC(=O)c1cc2cc(OC)ccc2oc1=O,-4,-9,4,1,-7,-7,·,i,
CCC1CN(S(=O)(=O)c2cc(-c3cc(C)no3)ccc2OC)c2cc(C)ccc2O1 (stereo unspecified),-7,31,1,-7,-11,·,12,i,
COc1cccc(/C=N/NC(=O)c2ccncc2)c1OC(=O)c1ccc(Br)cc1,?,-20,-3,2,?,·,·,i,
CCOC(=O)CCc1c(C)nc(SCc2ccc(C(=O)O)cc2)c(C#N)c1C,11,-4,0,-2,1,-13,6,i,
CCCc1cc(=O)oc2c3c(cc(OCC(=O)N4CCC[C@H]4C(=O)O)c12)OC(C)(C)CC3,-8,-15,2,4,2,-9,·,i,
O=C(c1cccnc1)N1CCC2CC1c1c(Cl)cccc12 (stereo unspecified),·,·,4,3,·,18,-375,·,
NC(c1ccccc1)c1csc(NC(=O)Nc2cccc(C(F)(F)F)c2)n1 (stereo unspecified),·,·,-4,-7,·,-10,39,·,
CSC(=NC#N)N1CCN(C(c2ccccc2)c2ccccc2)CC1,2,-2,-8,-5,6,-14,-1,i,
O=C(c1ccc(Cl)cc1)N1CCN(CCc2ccccn2)CC1,-2,-14,-2,-5,-2,-10,9,i,
CN1OC(CC(=O)O)N(c2ccc(Cl)cc2)C1=O (stereo unspecified),9,-10,2,3,0,-22,-23,i,
Cc1c(NC(=O)c2cc(C3CC3)on2)c(=O)n(-c2ccccc2)n1C,8,-4,0,4,9,-8,21,i,
CCOC(=O)C1CCN(C(=O)c2cc(C(C)(C)C)nn2Cc2ccccc2)CC1,-4,-3,-2,-4,-15,1,9,i,
CSc1cccc(NC(=S)NCCCO)c1,8,-7,-2,-2,7,-23,7,i,
CCOC(=O)C1CCCN(Cc2ccccc2OCC)C1 (stereo unspecified),-7,-9,1,3,-1,·,-48,i,
Cn1c(CC(=O)Nc2ccccc2)nnc1SCCOc1ccccc1,-8,-6,0,0,-8,9,·,i,
CCS(=O)(=O)N1CCC(C(=O)NCCCN2CCCCCC2)CC1,3,22,-3,3,8,-13,·,i,
COc1cc(C#CC#CCN2CCCCC2)ccc1O,1,·,5,-7,1,-12,-42,i,
COc1ccc(-n2nc3cc(N)c(Br)cc3n2)cc1,10,43,1,-2,6,-25,-104,i,
N=C1C(c2nc3ccccc3s2)=C(O)CN1C1CCCCC1,4,1,-1,-1,3,·,-8,i,
COc1cc(OC)c2c(c1)OC(=O)CC2c1ccc(C)cc1 (stereo unspecified),·,·,0,-2,·,-10,8,·,
COc1ccc(CCNC(=O)C(C)SCc2ccccc2)cc1 (stereo unspecified),4,-4,0,0,2,-7,-6,i,
CSc1nnc(C)c(=O)n1COC(=O)COc1ccccc1F,10,7,2,1,-2,·,9,i,
CCc1noc(C)c1C(=O)OCC(=O)N(C)c1c(N)n(Cc2ccccc2)c(=O)[nH]c1=O,·,-11,5,6,·,0,-26,i,
O=C(Cc1c(F)cccc1Cl)N(Cc1ccccc1)c1ccccn1,3,17,-3,0,6,·,16,i,

# Next section (two carried over from the part before).
SMILES,PABP polyA inh,CSC inhib,MT1-MMP act inh,MT1-MMP act inh RFP,eIF4H FP inh,UUG fidelity,Env fusion inh,Rce1 inh,others
CCc1noc(C)c1C(=O)OCC(=O)N(C)c1c(N)n(Cc2ccccc2)c(=O)[nH]c1=O,·,-11,5,6,·,0,-26,i,
O=C(Cc1c(F)cccc1Cl)N(Cc1ccccc1)c1ccccn1,3,17,-3,0,6,·,16,i,
Cc1ccc(NC(=O)c2nc[nH]c2C(=O)NC2CCN(C(=O)OC(C)(C)C)CC2)cc1,·,·,1,-5,·,-14,-23,·,
Cc1ccc2c3c1C(=O)C(=O)N3C(C)(C)CC2C (stereo unspecified),-7,-16,-3,0,-10,-17,-2,i,
Cc1cc(C(=O)OCC(=O)NCCC(C)C)c2ccccc2n1,0,·,2,1,8,-13,3,i,
Cc1cccc(N(CC(=O)N/N=C/c2ccccc2C(=O)O)S(C)(=O)=O)c1C,-3,-2,0,5,-1,-10,11,i,
Fc1ccc(-n2cc(-c3ccccc3)c3c(NN4CCOCC4)ncnc32)cc1,10,22,2,-1,-9,·,·,i,
C[C@H](CO)N1C[C@H](C)[C@@H](CN(C)S(=O)(=O)c2cccs2)Oc2ccc(NC(=O)C3CC3)cc2C1=O,·,·,3,7,·,-8,-36,·,
O=C(c1ccc(F)cc1)C1CCN(C(=O)c2c(F)cccc2F)CC1,-5,-10,-2,1,1,-4,26,i,
Cc1ccc(-n2ncc3c(=O)[nH]c(SCC(=O)N4CC(=O)Nc5ccccc54)nc32)cc1,·,-10,-1,2,·,-14,-3,·,
Cc1nc(/C(N)=N/OC(=O)c2ccccc2Cl)c(C(F)(F)F)o1,3,-15,-6,0,-4,-18,-15,i,
CC1(c2cccc(N)c2)OCCO1,·,·,-4,8,·,1,0,·,
COc1ccc2cc3cc(C(=O)NCc4cccs4)oc3nc2c1,-5,11,-4,-12,11,-9,-121,?,
O=C(/C=C/NNC(=O)c1ccccc1)c1ccc(Br)cc1,8,17,0,6,2,5,·,i,
CCCCN1C(N)=NC[C@@H]1CCCCN,·,-15,-3,0,·,-9,-9,i,
CCOc1ccccc1N1CCN(C(=O)c2ccc(S(=O)(=O)Nc3ccccc3)cc2)CC1,·,9,-1,-12,·,-6,-8,·,
COc1ccc(C2CCCCCN2Cc2nc3ccccc3c(=O)n2CC(N)=O)cc1 (stereo unspecified),-3,-2,-1,2,-4,-16,-10,·,
CCOc1ccccc1NC(=O)c1cccc(NC(=O)C2CCCC2)c1,-3,1,1,-6,-6,-7,12,i,
Cn1c(=O)c2c(SCc3ccccn3)nc(C3CC3)nc2n(C)c1=O,4,-12,-1,-1,4,-17,11,i,
Cc1ccc2cccc(NC(=S)NC(=O)c3ccn(C)n3)c2n1,-7,0,2,-1,13,-20,·,i,
COc1ccccc1NC(=O)C(C)Sc1nnnn1C (stereo unspecified),-2,-10,5,-3,4,-28,-200,i,
CCNC(=S)NNc1nnc(-c2ccccc2)c(-c2ccccc2)n1,-4,-21,3,-1,-2,-25,7,i,
CC(Oc1ccc(Br)cc1)C(=O)NNC(=O)CCN1CCN(c2ccccc2)CC1 (stereo unspecified),·,-8,2,-5,·,-7,22,i,
Cc1ccc(S(=O)(=O)N(C)c2ccccc2C(=O)N2CCOCC2)cc1,0,3,-4,1,3,-18,-296,i,
CC(C)n1cc(CN2CCC(C(=O)Nc3cccc(-c4cccc(Cl)c4)c3)CC2)cn1,-1,31,2,1,-3,13,-16,i,
CC(C)(C(=O)c1ccccc1)/[N+]([O-])=C/c1ccc(F)cc1,·,-10,4,-2,·,-3,-62,i,
O=c1[nH]c(=O)n(Cc2ccccc2)c2nc(-c3cccs3)n(CCO)c12,-2,-5,·,·,11,·,9,i,
O=c1[nH]c(O)c(/C=C2\C=Nc3ccccc32)[nH]1,13,0,2,-2,10,-12,-46,i,
CC(C)(C)C1CCc2c(sc(NC(=O)c3cc(C4CC4)on3)c2C#N)C1 (stereo unspecified),1,57,-4,-8,5,-22,-2,i,
CN(C)c1ccc(-c2ccccc2)nn1,-3,-8,0,3,2,-28,-119,i,
COCCCN1C(=O)C(CC(=O)NCCN2CCOCC2)CC(C(=O)N(C(C)C)C(C)C)=C1C (stereo unspecified),·,·,-1,0,·,-15,-4,·,
O=c1cc(-c2ccccc2)[nH]n1-c1nc2ccccc2s1,12,98*,-3,-4,12,1,·,i,
Cc1nn(C)c(C(=O)NC(=S)Nc2ccccc2Br)c1Cl,4,-3,-3,1,-4,-19,-289,·,
O=C(Nc1nccs1)c1ccccn1,2,-6,1,0,16,·,-7,i,
Cn1c(SCC(=O)Nc2ccccc2F)nnc1-c1ccc(S(=O)(=O)N2CCOCC2)cc1,12,-4,9,0,1,-3,-41,i,
Cc1ccc(OCCCc2c(C)n[nH]c2C)cc1,-6,-3,-3,-10,-2,·,10,i,
Cc1ccc(-c2cccc(-c3cc(=O)oc4ccc(C(C)(C)C)cc34)c2)cc1,·,·,-2,-7,·,-7,12,·,
Cn1cc(Br)cc2nc(C(F)(F)F)nc1-2,-5,0,-2,2,-4,4,·,i,
CCc1nc2c(OCCC3CCCCC3)cccn2c1N(C)C(=O)COc1ccccc1,·,·,-1,-12,·,-15,35,·,
CCOc1ccccc1N1CCN(C(=O)c2ccncc2)CC1,2,·,7,2,108,·,-30,i,eIF4H FP inh retest=0;PABP polyA inh retest=18
O=C(c1ccco1)N1CCC(c2nc3c(nnn3Cc3ccc(F)cc3)c(=O)[nH]2)CC1,4,-13,5,2,-16,14,-5,·,
CC(C)(C)c1ccc(CC(=O)N2CCC2(C)C(=O)NS(=O)(=O)c2ccccc2Cl)cc1 (stereo unspecified),·,·,-2,6,·,29,10,·,
O=C(Nc1c(Cl)cccc1Cl)C1CCN(C(=O)c2cccs2)CC1,0,-5,1,1,-19,-5,13,·,
Nc1nc(SCC(=O)c2ccc([N+](=O)[O-])cc2)n[nH]1,-1,·,-2,4,-5,·,1,i,
C#Cc1ccc([C@@H]2C=C(C(=O)OCC=C)O[C@H](OCCCCO)C2)cc1,1,15,3,-4,25,21,-5,i,
CCN(CC(=O)Nc1ccc2c(c1)OCCO2)C(=O)C(C)Oc1ccc(Cl)cc1 (stereo unspecified),·,1,0,-6,·,-10,19,i,
COc1ccc(NC(=S)NCCc2c[nH]c3ccc(OC)cc23)c(OC)c1,5,14,6,0,0,-29,·,i,
Cc1ccc(CCNC(=O)CCS(=O)(=O)c2ccc3c(c2)oc(=O)n3C)cc1,12,-6,4,1,1,-16,20,i,
Cc1ccc(-c2nc(N/N=C/c3ccncc3)c3ccccc3n2)cc1,4,-18,-13,-2,2,-45,i,i,
CCO[C@@H]1OC(C(=O)NCc2ccccc2)=C[C@H](c2cn(C(C)=O)c3ccccc23)[C@H]1CCCO,-2,-7,5,1,-10,-3,0,i,
COc1cc2ccccc2cc1C(=O)NCc1ccncc1,-17,4,3,-3,-4,-13,1,i,
CCn1c(CNc2ccc(F)cc2)nnc1SCC(=O)Nc1ccccc1OC,-8,-12,2,1,-7,-7,-30,i,
